Source: PubChem (several laboratories)
PABP FP inh = PABP poly(A) RNA binding inhibitors, primary screen, biochemical, fluorescence polarization, uHTS; Polyadenylate-binding protein 1 (Homo sapiens), P11940; inhibition, % at 35 µM; 1% of 290,000 active;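 active = 50% or more with normal probe brightness, or confirmed in later tests; inconclusive = above 50% with abnormal brightness, or retests that disagree; inactive = below 50% or failed in later tests; about a fifth of its hits are not listed in these tables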;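 also: calls also rest on retests at 20 µM and on dose response follow-up; controls were probe without protein and protein plus probe with vehicle; some compounds called inactive have numbers as strong as hits; many hits fall short of the cut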
Target sequence (P11940 whole entry, looked up): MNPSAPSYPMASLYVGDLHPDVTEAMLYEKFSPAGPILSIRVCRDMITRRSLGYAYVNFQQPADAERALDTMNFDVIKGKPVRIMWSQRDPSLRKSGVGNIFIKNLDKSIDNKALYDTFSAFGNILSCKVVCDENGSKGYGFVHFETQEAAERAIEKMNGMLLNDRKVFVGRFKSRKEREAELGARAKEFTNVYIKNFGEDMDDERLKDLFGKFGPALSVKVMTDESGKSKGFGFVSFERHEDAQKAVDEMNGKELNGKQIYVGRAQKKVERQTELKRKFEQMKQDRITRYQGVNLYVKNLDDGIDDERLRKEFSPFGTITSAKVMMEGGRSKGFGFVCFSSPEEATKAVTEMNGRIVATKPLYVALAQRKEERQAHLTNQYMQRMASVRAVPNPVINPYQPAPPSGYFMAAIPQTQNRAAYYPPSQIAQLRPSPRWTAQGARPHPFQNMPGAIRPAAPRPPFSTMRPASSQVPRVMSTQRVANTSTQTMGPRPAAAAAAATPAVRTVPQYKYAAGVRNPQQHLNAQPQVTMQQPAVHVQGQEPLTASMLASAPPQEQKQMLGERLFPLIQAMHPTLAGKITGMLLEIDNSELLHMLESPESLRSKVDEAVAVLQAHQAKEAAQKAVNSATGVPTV
Rce1 inh = yeast Rce1p protease inhibitors, primary screen, biochemical, fluorescence, cell-free homogeneous. CAAX prenyl protease 2 (Saccharomyces cerevisiae (strain ATCC 204508 / S288c)), Q03530. yeast membranes, quenched prenylated peptide cleavage fluorescence. calls only. 0.27% of 290,000 active. AID 2563, 2010;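 active = fall in fluorescence gain of 50% or more versus controls, with final raw signal at or below 3038400; inconclusive = same 50% fall but final raw signal above 3038400; inactive = fall in fluorescence gain under 50%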;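 also: plate controls were neutral control wells for no effect and wells lacking membranes for full effect; tested at 10 µM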
UUG fidelity = modulators of yeast start codon fidelity, primary screen, whole organism, S. cerevisiae, single point, plate reader; activity score, % at 18.7 µM; 0.13% of 350,000 active; S. cerevisiae UUG-firefly luciferase reporter, luminescence/redox ratio;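 active = replicate mean at a twofold rise or more, about +100% in these data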;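 also: firefly luciferase made from a UUG start codon reports start codon fidelity; reporter light over untreated wells divided by growth signal over untreated wells; some hits fall short of that in this replicate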
HIV Env fusion = inhibitors of HIV-1 Env-driven cell-cell fusion, primary screen, HeLa-JRFL effector, CEM21 target cells, luciferase | AID 651610, 2012 | inhibition, % at 12.3 µM | 1.1% of 360,000 active;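 active = mean replicate inhibition score of at least 50 and every replicate individually at or above 50; inconclusive = only one of the two criteria met; inactive = mean below 50 and not all replicates reaching 50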;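 also: 0% = plate neutral controls and 100% = maraviroc near 300 nM; one replicate is shown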
eIF4H FP inh = human eIF4H binding inhibitors, primary screen, translation initiation inhibitor project, biochemical, uHTS, fluorescence polarization. eIF4H fluorescence polarization binding assay. inhibition, % at 35 µM. 0.94% of 290,000 active;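 active = 50% or more with normal probe brightness, or confirmed in later tests; inconclusive = above 50% with abnormal brightness, or retests that disagree; inactive = below 50% or failed in later tests; about a fifth of its hits are not listed in these tables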;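 also: calls also rest on retests at 20 µM and on dose response follow-up; 0% = protein and probe with vehicle and 100% = probe without protein; strong numbers were not always called active; many hits fall short of the cut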
CSC inhib = cancer stem cell viability inhibitors, primary screen, luminescence; inhibition, % at 7.5 µM; AID 2717, 2010; 1.1% of 300,000 active; cancer stem cell-like cells viability;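 active = mean at 75% or more and at least half the replicates too; inconclusive = mean and replicates disagree; tested in HMLE shEcad cells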;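 also: 0% = median of negative and 100% = median of positive control wells; the first replicate is given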
MT1-MMP act inh = blockers of MT1-MMP proenzyme processing, primary screen, HT1080 RFP-PRO-GFP cells, GFP/RFP fluorescence; GFP/RFP ratio fluorescence, overnight; percent of plate control window, DMSO zero; GFP/RFP ratio change, % at 20 µM; 0.061% of 360,000 active; AID 651647, 2012;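 active = GFP/RFP ratio change of at least 30% with cell ATP level not reduced by more than half and red fluorescence within 50% of control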; also: strong numbers were not always called active
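Material: RFP-PRO-GFP reporter HT1080 cells. Dosing: single-point 20 µM compound, 1% DMSO. Controls: DMSO and RFP-L50D-GFP cell wells. Timing: cells overnight before dosing, compound overnight, 37 °C, 5% CO2. Measure: GFP/RFP fluorescence ratio.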
MT1-MMP act inh RFP = recorded beside MT1-MMP act inh, whose call it bears; RFP signal change, %; measured here: RFP expression control read;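 0 = vehicle wells; hits needed this value within 50% of zero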
Starred values were filed as active, the others as inactive; i = inactive; ? = inconclusive; nt = no result given.

smiles,PABP FP inh,Rce1 inh,UUG fidelity,HIV Env fusion,eIF4H FP inh,CSC inhib,MT1-MMP act inh,MT1-MMP act inh RFP
Cc1ccc(Cn2ncc3c(N4CCN(C)CC4)ncnc32)cc1,1,i,nt,3,43,17,8,1
Cc1cc(C)c2cc(CN(CCO)C(=O)Nc3ccc(Cl)cc3)c(=O)[nH]c2c1,-16,i,nt,nt,-3,1,nt,nt
COC1CCCCC1Nc1cc(C)cc(C)c1 (stereo unspecified),24,i,5,nt,5,-1,1,0
O=C(CSC1=NS(=O)(=O)c2ccccc2N1)Nc1ccccc1F,nt,i,-20,-25,nt,10,5,0
Cc1ccc(C)c(Cn2c3ccccc3c3cnn(CC(=O)NCCN4CCOCC4)c(=O)c32)c1,2,i,1,4,-4,3,4,-3
CCOC(=O)CSc1nnc(CNC(=O)c2cc(OC)c(OC)c(OC)c2)n1C,0,i,nt,nt,-8,-11,2,13
O=S(=O)(Cc1ccccc1)N1CCCC1,1,i,-3,27,-3,-18,0,7
Cc1onc(-c2ccccc2Cl)c1C(=O)N1CCN(S(=O)(=O)c2ccc(F)c(F)c2)CC1,-2,i,-16,4,-8,3,-3,0
Cc1cc(C)n(CCNC(=O)CC2C(=O)NCCN2CC2CCCCC2)n1 (stereo unspecified),9,i,nt,8,15,-8,5,4
O=C(CN1CCOCC1)Nc1c2c(nc3c1CCC3)CCC2,-1,i,8,nt,-15,-1,-2,0
O=C(NCc1ccccc1)c1ncn[nH]1,2,i,0,-7,8,-6,-1,3
COC(=O)c1cc(-c2c(C)oc3cc(O)ccc3c2=O)c(C)o1,-9,i,8,nt,-5,-15,2,4
O=C(NCC(c1cccnc1)N1CCN(c2ccc(F)cc2)CC1)c1ccc(F)cc1 (stereo unspecified),9,i,-22,nt,3,-7,1,-7
Cc1ccc(C(=O)N/C(=C/c2cccs2)C(=O)N2CCCCCC2)cc1,-2,i,-6,42,-3,-8,7,-1
O=C(c1ccco1)N1CCN(c2ccc([N+](=O)[O-])cn2)CC1,-5,i,-6,5,-6,-2,-8,1

(list continues)
smiles,PABP FP inh,Rce1 inh,UUG fidelity,HIV Env fusion,eIF4H FP inh,CSC inhib,MT1-MMP act inh,MT1-MMP act inh RFP
CC1CC(=O)Nc2ccccc2N1S(=O)(=O)c1cccc(F)c1 (stereo unspecified),-10,i,-20,2,-11,-13,5,3
C=CCOc1c(CNc2ccc(S(N)(=O)=O)cc2)cccc1OC,2,nt,13,nt,-1,-9,-3,-2
COc1ccc(CNC(=O)CN(C(=O)c2csnn2)c2cccc(F)c2)cc1,-7,nt,-8,-3,-6,-15,0,2
O=C(CSc1nc2ccccc2n1-c1ccccc1)Nc1ncc(Cl)cc1Cl,2,i,-14,-2,-7,46,-3,-5
O=C(COc1ccccc1)Nc1ccc(S(=O)(=O)NCc2ccco2)cc1,4,i,-14,-52,10,6,-1,7
CCn1c(SCC(=O)Nc2cc(NC(C)=O)ccc2OC)nnc1-c1ccccn1,10,i,-6,nt,3,-7,-5,-5
Cc1ccc(C(=O)COc2ncnc3cc(Cl)ccc23)cc1,-6,i,-24,-20,-11,5,7,2
COc1ccc(OCCCC(=O)Nc2cc(Cl)ccc2-n2cncn2)cc1,nt,i,-19,2,nt,-11,4,3
COc1cc(/C=N/NC(=O)c2cccnc2)cc2c1OCO2,0,i,-11,-1,-4,-4,0,2
Cc1ccc(C)c(NC(=S)N2CCN(c3ccccn3)CC2)c1,-1,i,-10,6,-8,-16,3,0
CCC(=O)c1ccc(OCC(=O)OCC(=O)N2c3ccccc3NC(=O)C2(C)C)cc1,nt,i,nt,2,nt,4,-1,3
Cc1ccc(NC(=S)N2CCN(S(=O)(=O)c3ccc(F)cc3)CC2)cc1,-8,i,-26,38,5,-4,0,-1
NS(=O)(=O)c1ccc(CNC(=O)/C=C/c2cccc(Cl)c2)cc1,-2,i,-3,-1,-4,8,2,0
CC(=O)Oc1ccc(C2(C)CC(C)(C)Oc3cc(OC(C)=O)ccc32)c(OC(C)=O)c1 (stereo unspecified),-7,i,-12,-56,-1,-8,1,-4
Cc1ccc(C)c(S(=O)(=O)N2CCN(C(=O)c3sccc3C)CC2)c1,nt,i,-14,14,nt,nt,-4,-4

The results go on:
smiles,PABP FP inh,Rce1 inh,UUG fidelity,HIV Env fusion,eIF4H FP inh,CSC inhib,MT1-MMP act inh,MT1-MMP act inh RFP
COc1ccccc1OCc1ccc(C(=O)Nc2ccncc2)o1,-6,i,-10,?,-2,-10,-3,-19
COc1ccc(CN(C)C(C)C(=O)NC2CCCc3ccccc32)cc1 (stereo unspecified),-5,i,nt,18,2,29,-4,-1
CCCS(=O)(=O)c1c(S(=O)(=O)CCC)c2c(C)cccn2c1C(=O)OC,2,i,-12,-54,1,-3,5,6
Cc1nc2ccccc2n1CC(=O)OCC(=O)NCc1ccccc1,-5,i,nt,3,-6,12,1,3
Cc1c(NC(=O)c2ccc(S(=O)(=O)N3CCOCC3)cc2)cccc1[N+](=O)[O-],nt,i,-17,-3,nt,-10,1,4
N#C/C(=C1/CCCCCN1)c1nnc2n1CCCCC2,3,i,nt,nt,3,-3,3,6
Cc1ccc(N(CCC(=O)O)S(=O)(=O)c2ccc(C)cc2)cc1,-2,i,nt,-22,-2,-8,2,5
CCOc1ccccc1N1CC(C(=O)NC2CCCCCC2)CC1=O (stereo unspecified),nt,nt,5,-4,nt,-9,0,1
O=C1COc2ccc(C(=O)/C=C/c3ccccc3)cc2N1,-10,i,-8,9,5,30,7,2
CCC(=NCc1ccc(Cl)c(Cl)c1)c1nc(-c2ccco2)oc1O,-1,i,-17,9,-8,102*,3,0
C#CCOCCOCCOCCNc1nc(N2CCOCC2)nc(N2CCN(C(=O)[C@H](CCC(=O)O)n3cc(C(N)[C@H](C)CC)nn3)CC2)n1 (stereo partly specified),1,i,7,2,1,18,-1,3
COc1cc(SC)ccc1C(=O)Nc1ccc(Cl)cn1,1,nt,-63,-277,2,-12,-2,-1
COC(=O)CCCC1=CC2=C(c3ccccc3)C(=O)C(C)(OC(=O)C3CCCC3)C(=O)C2=CN1CCc1c[nH]c2ccccc12 (stereo unspecified),9,i,-4,-56,-1,-9,-3,8
O=C(CC1CCCCC1)NCCS(=O)(=O)N1CCN(c2ccccc2)CC1,nt,i,-6,6,nt,nt,1,-10
CCOC(=O)N1CCN(CCC(=O)Nc2ccc(F)c(F)c2)CC1,-8,i,-22,0,2,-4,4,0

Additional entries
smiles,PABP FP inh,Rce1 inh,UUG fidelity,HIV Env fusion,eIF4H FP inh,CSC inhib,MT1-MMP act inh,MT1-MMP act inh RFP
CC(=O)N1CC(=O)N(CC(=O)Nc2ccc(Br)cc2)C1=S,1,i,120*,4,-4,9,-2,2
COc1cc(Cl)c(C)cc1NC(=O)CSC,-8,i,-9,nt,-3,-3,6,-3
CCOc1ccc(CCN2C(=S)N([C@@H](Cc3ccc(O)cc3)CN3CCC[C@@H]3CN3C(=S)NC[C@@H]3Cc3ccccc3)C[C@@H]2Cc2ccccc2)cc1,nt,nt,-10,-121,nt,nt,-4,-5
CC(NS(=O)(=O)c1ccc(Cl)cc1)C(=O)OCC(=O)c1ccc[nH]1 (stereo unspecified),nt,nt,-13,9,nt,-12,-5,2
CC(OC(=O)c1cc(=O)[nH]c2ccccc12)C(=O)c1ccccc1 (stereo unspecified),1,i,1,22,-9,-7,7,-4
CCOC(=O)C1(Cc2ccc(OC)cc2)CCN(C(=O)c2ccoc2C)CC1,6,i,-5,7,35,-12,-5,-4
Cc1ccc(CN2CC(C(=O)N3CCN(S(=O)(=O)c4cccc(F)c4)CC3)CC2=O)cc1 (stereo unspecified),nt,i,-8,2,nt,-9,-1,-4
CN(C(=O)c1ccc(NC(=O)Cc2cccc(NC(=O)C3CCCN(C(=O)C4CCCCC4)C3)c2)cc1)C1CCCC1 (stereo unspecified),nt,nt,-16,-28,nt,-7,-2,0
CN(CC(=O)NCc1ccco1)S(=O)(=O)c1cccc2cccnc12,12,i,1,-9,2,-9,1,7
CC1=C(C)CC(C(=O)Nc2nccs2)C(C(=O)O)C1 (stereo unspecified),-5,i,1,4,-14,-4,1,2
Nc1c2c(nn1-c1ccc(C(=O)O)cc1)CNC2,16,i,-6,-9,-9,1,1,2
COc1cccc2c1C(=O)C=C(C)C2=O,-14,i,-16,nt,-7,22,-95,33
COc1ccc(CNC(=O)COC(=O)c2ccc(F)c(S(=O)(=O)N3CCCCC3)c2)cc1OC,-9,i,-5,-1,3,nt,4,-3
O=C(CSc1nnnn1-c1ccc(C(=O)O)cc1)NC1CC1,8,i,1,-272,-5,-5,2,4
CC1CCN(C(=O)Cn2c(=O)n(Cc3ccco3)c(=O)c3sccc32)CC1,4,nt,-17,2,-9,4,2,2

(list continues)
smiles,PABP FP inh,Rce1 inh,UUG fidelity,HIV Env fusion,eIF4H FP inh,CSC inhib,MT1-MMP act inh,MT1-MMP act inh RFP
CC1(C)Cc2nc(Cl)c(C(N)=O)cc2CO1,8,i,-3,-3,-1,-1,1,2
Cc1ccc(C)c(N(C)S(=O)(=O)c2cccc3nsnc23)c1,1,i,0,-23,2,-8,4,1
C=CCOc1ccccc1CN1CCC(Cc2ccccc2)CC1,-1,i,-15,-4,2,11,2,1
Cc1ccc(S(=O)(=O)/N=C(/c2ccc(F)cc2)N2CCOCC2)cc1,-1,i,-4,5,2,-10,-3,0
CCOc1ccc(S(=O)(=O)N2Cc3ccccc3CC2C(=O)O)cc1 (stereo unspecified),4,i,0,25,1,-9,-2,-2

Arranged by SMILES length (largest number first): part of the list above.
smiles,PABP FP inh,Rce1 inh,UUG fidelity,HIV Env fusion,eIF4H FP inh,CSC inhib,MT1-MMP act inh,MT1-MMP act inh RFP
CN(C(=O)c1ccc(NC(=O)Cc2cccc(NC(=O)C3CCCN(C(=O)C4CCCCC4)C3)c2)cc1)C1CCCC1 (stereo unspecified),nt,nt,-16,-28,nt,-7,-2,0
COc1ccc(CNC(=O)COC(=O)c2ccc(F)c(S(=O)(=O)N3CCCCC3)c2)cc1OC,-9,i,-5,-1,3,nt,4,-3
CC1CCN(C(=O)Cn2c(=O)n(Cc3ccco3)c(=O)c3sccc32)CC1,4,nt,-17,2,-9,4,2,2
Cc1ccc(S(=O)(=O)/N=C(/c2ccc(F)cc2)N2CCOCC2)cc1,-1,i,-4,5,2,-10,-3,0
CN(CC(=O)NCc1ccco1)S(=O)(=O)c1cccc2cccnc12,12,i,1,-9,2,-9,1,7
Cc1ccc(C)c(N(C)S(=O)(=O)c2cccc3nsnc23)c1,1,i,0,-23,2,-8,4,1
O=C(CSc1nnnn1-c1ccc(C(=O)O)cc1)NC1CC1,8,i,1,-272,-5,-5,2,4
CC1=C(C)CC(C(=O)Nc2nccs2)C(C(=O)O)C1 (stereo unspecified),-5,i,1,4,-14,-4,1,2
Nc1c2c(nn1-c1ccc(C(=O)O)cc1)CNC2,16,i,-6,-9,-9,1,1,2
COc1cccc2c1C(=O)C=C(C)C2=O,-14,i,-16,nt,-7,22,-95,33

Compounds were not picked by outcome (roughly 2.9% active in at least one column).
